# LASV entry inh: blocks Lassa virus binding to or entry into cells. Lassa virus pseudotype entry inhibition, cell reporter; control for the full effect not named in the record. Potency, µM (top dose mostly 37.9 µM), for inactives: top-dose activity change, negative = inhibition, usual class: inhibitors. 300,000 tested, 1.2% active; active means well fitted inhibition curve with a large enough effect; inconclusive means small, poorly fitted or top-dose-only effect, or effect the other way; inactive means flat fitted curve, though single readings scatter; tested in HEK293 cells; note: % is set by controls: 0 for no effect and ±100 for the full control effect; nearly all actives have a fitted effect of over 50% in size; luciferase read-out
# MARV entry inh: Marburg virus entry inhibition. Marburg virus pseudotyped entry inhibition, cell reporter; control for the full effect not named in the record; about a third of the inactives were read at about 46 µM. Potency, µM (highest dose often 37.8 µM), without a hit: at the top dose activity change, negative = inhibition, actives largely listed as inhibitors. 300,000 tested, 1.8% active. AID 540276; active = well fitted inhibition curve with a large enough effect; inconclusive = small, poorly fitted or top-dose-only effect, or effect the other way; inactive = flat fitted curve, though single readings scatter; tested in HEK293 cells; about a fifth of its hits are not listed in these tables; note: % is set by controls: 0 for no effect and ±100 for the full control effect; luciferase read-out
# StopGo reporter: lowers the luciferase signal of an FMDV 2A StopGo reporter | Potency, µM (doses to about 57.9 µM), for inactives: at the highest dose signal change, negative = less light | human cells with a luciferase reporter of 2A StopGo recoding; control for the full effect not named in the record | 410,000 tested, 1.2% active | AID 1159524; active = well fitted falling curve with a large enough effect; inconclusive = small, poorly fitted or top-dose-only effect; inactive = no such curve, though single readings can be large or run the other way; tested in HEK293T cells; note: % is set by controls: 0 for no effect and ±100 for the full control effect; nearly all actives have a fitted effect of over 45% in size; luciferase light after 4 h
# Cruzain inh noDet: cruzain (T. cruzi) inhibition without detergent; 200,000 tested, 2.3% active; purified cruzain, Z-FR-AMC fluorescence, no detergent; Potency, µM, without a hit: max response, negative = inhibition, actives largely listed as inhibitors;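 note: plate controls were enzyme without inhibitor for no effect and buffer without enzyme for full effect; nearly all actives have a fitted effect of over 40% in size; top concentration of the series not given in the record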
# Target sequence (P25779 123-467 limits assumed): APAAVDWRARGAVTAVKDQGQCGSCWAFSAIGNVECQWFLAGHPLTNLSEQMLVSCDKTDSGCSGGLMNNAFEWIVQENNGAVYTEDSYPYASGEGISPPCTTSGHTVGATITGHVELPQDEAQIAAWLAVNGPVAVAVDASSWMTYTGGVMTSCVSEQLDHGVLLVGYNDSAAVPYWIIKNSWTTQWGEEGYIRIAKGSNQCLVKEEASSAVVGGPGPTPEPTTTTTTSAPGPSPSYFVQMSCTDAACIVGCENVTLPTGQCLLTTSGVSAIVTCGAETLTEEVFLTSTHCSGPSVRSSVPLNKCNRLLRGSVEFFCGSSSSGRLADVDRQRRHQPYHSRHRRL
#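 Detergent-free condition (0.00005% Triton X-100) in acetate buffer pH 5.5 with DTT. 1.5 nM enzyme and compound were pre-mixed 15 min, then 2 uM Z-FR-AMC substrate added; reaction progress from fluorescence change between first and third reads (60 s).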
# NS1 function inh: influenza NS1 inhibition; 270,000 tested, 0.4% active; AID 2326; S. cerevisiae slowed by influenza A NS1, growth recovery by OD600; Potency, µM (highest dose often 46.1 µM), for inactives: at the highest dose activity, positive = more growth; active means well fitted rising curve with a large enough effect; inconclusive means small, poorly fitted or top-dose-only effect; inactive means no such curve, though single readings can be large or run the other way; note: nearly all actives have a fitted effect of over 50% in size
#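 Growth recovery, yeast-based: influenza A NS1 expressed in S. cerevisiae causes slow growth, and suppressors are detected by OD600. The parent strain without NS1 is used as positive control.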
# RE007 growth inh: less growth of the S. pombe RE007 Vpr strain; S. pombe RE007 Vpr strain, BacTiter-Glo ATP luminescence, 24 h; control for the full effect not named in the record; Potency, µM (series often up to 92.2 µM), inactives show top-dose activity change, negative = less growth; 360,000 tested, 0.21% active; active = well fitted falling curve with a large enough effect; inconclusive = small, poorly fitted or top-dose-only effect; inactive = no such curve, though single readings can be large or run the other way;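 note: % is set by controls: 0 for no effect and ±100 for the full control effect; nearly all actives have a fitted effect of over 50% in size; the assay follows cell death caused by Vpr and the record does not say whether a fall means rescue or toxicity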
#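 Fission yeast strain RE007, carrying one chromosomally integrated HIV-1 vpr copy, was seeded at OD 0.01 in PMG+AL medium with 23 nL pinned compound. After 24 h at 30 °C and 99% humidity, viability was read by BacTiter-Glo luminescence.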
# SARS PLP yeast: inhibitors of SARS-CoV papain-like protease in yeast; 330,000 tested, 0.19% active; S. cerevisiae expressing SARS-CoV PLpro, growth rescue; control for the full effect not named in the record; Potency, µM (highest dose often 32.9 µM), inactives show at the highest dose activity, positive = growth rescue; AID 485353; active means well fitted rising curve with a large enough effect; inconclusive means small, poorly fitted or top-dose-only effect; inactive means no such curve, though single readings can be large or run the other way; note: 0% is about no effect; nearly all actives have a fitted effect of over 55% in size; growth read by luminescence after 48 h
# Cruzain inh Det: blocks cruzain activity in presence of Triton detergent; P25779; purified cruzain, Z-FR-AMC fluorescence, 0.01% Triton; Potency, µM, without a hit: max response, negative = inhibition, most hits filed as inhibitors; 200,000 tested, 0.43% active; AID 1478;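 note: plate controls were neutral wells for no effect and buffer without enzyme for full effect; nearly all actives have a fitted effect of over 40% in size; top concentration of the series not given in the record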
#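 Cysteine protease activity tested under reducing, mildly acidic conditions (100 mM sodium acetate pH 5.5, 5 mM DTT) plus 0.01% Triton X-100. Cruzain 1.5 nM; substrate Z-FR-AMC 2 uM; 15 min compound preincubation at room temperature.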
# * marks the source's active call; other numbers are inactive results; ? = inconclusive; · = not tested or not shown; & = joins results of further samples; [ ] = remark or other dose. Unless noted, calls come from the whole dose curve; as a rule, active = well fitted curve in the direction sought with a large enough effect; inconclusive = small, poorly fitted or top-dose-only effect, or another doubt; inactive = no such curve, though single readings can be large; an effect the other way counts as inactive or inconclusive. Potency is the fitted concentration of half-maximal effect. Outcome played no part in choosing rows; 4.7% or so of the library scored in one or more.
structure,Cruzain inh Det,Cruzain inh noDet,LASV entry inh,RE007 growth inh,MARV entry inh,SARS PLP yeast,NS1 function inh,StopGo reporter
COc1ccccc1-c1nnc(C2CCN(S(=O)(=O)c3ccccc3)CC2)o1,0.7%,-9%,9%[46.1 µM],·,-1%[46.1 µM],·,·,3%
COc1ccccc1N1CCN(C(c2ccc(Cl)cc2)c2nnnn2C(C)(C)C)CC1 (stereo not given),-2.8%,?,?,?,?,-1%,?,?
O=S(=O)([N-]c1nc2ccccc2nc1-[n+]1ccccc1)c1ccccc1,-3.9%,0%,-6%,3%,0%,-23%,6%,11%
CCC(C)C(N=C1NS(=O)(=O)c2ccccc21)C(=O)N1CCC(C)CC1 (stereo not given),·,·,-20%,0%,-14%[46.1 µM],-2%,·,-1%
Oc1ccc(C=NCC2COc3ccccc3O2)cc1 (stereo not given),4.8%,?,0%,8%,14%,1%,-10%,2%
COc1cccc(C(=O)NCCOc2cc(C)cc(C)c2)c1,-3.4%,-9%,7%,-4%,-7%,-12%,-18%,-12%
CC(=O)C1=C(O)C(=O)N(c2nccs2)C1c1ccccc1F (stereo not given),·,·,?,-6%,-1%,4%,3%,8%
CC(=S)c1c(C)cc2cc(C)ccn12,-15%,-13%,?,3%,?,1%,21%,-4%
O=C(C1CCCN(S(=O)(=O)c2ccc(Cl)cc2)C1)N1CCCC1 (stereo not given),·,·,13%,18%,10%[46.1 µM],0%,1%,-27%
O=C(OCCN1CCCCC1)c1ccccc1F,·,·,?,0%,-1%,2%,-1%,3%
O=C(CSc1ccc(-c2ccco2)nn1)N1CCCC1,·,·,24%[46.1 µM],-13%,4%[46.1 µM],-1%,·,3%
COc1cccc(NC(=O)CN(C)C(=O)c2oc3c(ccc4ccccc43)c2C)c1,·,·,-2%,4%,-30%[46.1 µM],-4%,·,-20%
Cc1ccc(C(=O)NCc2ccco2)o1,·,·,6%,0%,16%,1%,10%,-3%
COc1ccc2nc(C)cc(NCCN3CCOCC3)c2c1,·,·,2%,1%,-25%[46.1 µM],-1%,2%,4%
CCc1c(O)nc(SCc2nc3ccccc3c(=O)[nH]2)[nH]c1=O,·,·,4%,10%,6%[46.1 µM],4%,·,-14%
CCNC(=S)NCc1ccc(Cl)cc1,·,·,1%,-1%,5%,·,·,22%
COc1cc(C2C3C(=O)N(Cc4ccccc4)C(=O)C3ON2c2ccccc2)cc(OC)c1OC (stereo not given),-2.2%,?,7%,39%,4%,2%,11µM*,-18%
Cc1cc(C)n(C2CCCCC2OC(=O)c2ccccc2F)n1 (stereo not given),5.8%,0%,1%,-9%,4%,-10%,-83%,2%
CC(C)c1ccc(C(=O)NC(=S)Nc2ccc3[nH]c(=O)[nH]c3c2)cc1,·,·,-12%[46.1 µM],4%,?,0%,4%,-23%
CCN(CC)S(=O)(=O)c1ccc(C(=O)Nn2cnnc2)cc1,·,·,2%[46.1 µM],8%,17%[46.1 µM],0%,5%,5%
Cc1ccc(N(CC(=O)NCc2ccccc2Cl)S(=O)(=O)c2cccs2)cc1,-4.7%,0%,-13%,5%,-27%,3%,-6%,·
COc1ccc(C)cc1NC(=O)c1ccc(NS(=O)(=O)c2cccc3cccnc23)cc1,·,·,-13%,-7%,?,-2%,-7%,4%
Cc1cc(C)c(NC(=O)C(C)c2cccc(C(=O)c3ccccc3)c2)c(C)c1 (stereo not given),9.2%,3%,-1%,0%,-23%,-5%,18%,·
CCCCOc1ccc(C2=NC(c3ccncc3)=Nc3ccc(OCC)cc3N2)cc1,-9.0%,0%,-23%[46.1 µM],·,?,·,·,-12%
CCc1ccccc1NS(=O)(=O)c1ccc2c(c1)CC(=O)N2,-5.5%,3%,5%[46.1 µM],·,30%[46.1 µM],·,·,3%
Cn1c2ccccc2c(=O)c2c(=O)n(C3CCCCC3)c(-c3ccco3)nc21,-3.4%,-12%,4%,-15%,?,11%,8%,-28%
Cn1cccc1Cc1nnc(SCC(=O)Nc2cccc(Cl)c2)n1-c1ccc(F)cc1,-5.9%,15%,-9%,-2%,-21%&-21%,15%,-97%,-24%
COc1ccccc1NC(=O)Cn1cc(C(=O)C2CC2)c2ccccc21,·,·,-6%,0%,-5%,-7%,12%,-14%
COc1ccc(C(=O)N/C(=C\c2ccccc2)C(=O)Nc2cccc(C(=O)O)c2)cc1,·,·,·,2%,·,-4%,10µM*,1%
COc1ccc(CNc2ncnc3c2nnn3C)cc1,-1.4%,11%,-2%[46.1 µM],·,·,·,·,6%

# Results in StopGo reporter, LASV entry inh and SARS PLP yeast, for 2 of the compounds above:
Molecule	StopGo reporter	LASV entry inh	SARS PLP yeast
CCNC(=S)NCc1ccc(Cl)cc1	22%	1%	·
COc1cc(C2C3C(=O)N(Cc4ccccc4)C(=O)C3ON2c2ccccc2)cc(OC)c1OC (stereo not given)	-18%	7%	2%

# (further entries)
structure,Cruzain inh Det,Cruzain inh noDet,LASV entry inh,RE007 growth inh,MARV entry inh,SARS PLP yeast,NS1 function inh,StopGo reporter
CCOc1ccccc1/C=N/Nc1nc(C)cc(=O)[nH]1,·,·,·,4%,·,0%,1%,-10%
COC(=O)c1c(NC(=O)c2ccc(C)cc2)sc(Cc2ccccc2)c1C,-0.1%,?,2%,-5%,6%,-9%,12%,0%
Cc1cccc2cc(COC(=O)C3CCCO3)c(=O)[nH]c12 (stereo not given),-0.8%,1.6µM*,11%,5%,7%,-4%,2%,6%
CC(C)[C@H]1COCCS(=O)(=O)N1Cc1ccc(Cl)cc1,·,·,·,8%,·,-4%,-3%,0%
COc1ccc(C(=O)Nc2cc(-c3cccc(C)c3)nn2-c2ccccc2)cc1,-1.6%,-22%,20%[46.1 µM],·,·,·,·,10%
COCCCn1c(=S)[nH]c2ncccc2c1=O,6.7%,-6%,7%,6%,-7%,1%,-5%,9%
C=CCn1c(O)c(C(CC)=NC2CC2)c(=O)[nH]c1=O,1.6%,3%,0%,-4%,-3%,-3%,21%,11%
CCOC(=O)C1=C(C)NC(=O)NC1c1ccc(OCC(=O)N2CCCCC2)cc1 (stereo not given),-0.8%,4%,16%,23%,0%,4%,3%,-2%
O=C(C1CCC(N2C(=O)C3CC=CCC3C2=O)CC1)N1CCCCC1 (stereo not given),5.5%,-2%,-20%,3%,6%,0%,-1%,-2%
COc1ccc(C2N(C(=O)N3CCOCC3)CCN2S(=O)(=O)c2ccc(C)cc2)cc1 (stereo not given),-3.2%,12%,-9%[14.3 µM],21%,23%,-1%,-2%,-3%
COC(=O)CNC(=O)C(C)(C)Oc1ccc(Cl)cc1,-3.4%,-3%,2%,1%,17%,5%,-5%,-25%
O=C(NCc1ccc2c(c1)OCO2)C1CC(=O)N(CCc2ccc(Cl)cc2)C1 (stereo not given),·,·,4%,-5%,37%,2%,3%,3%
O=C(CSc1nnnn1-c1ccccc1)NCc1cccs1,4.4%,-6%,-26%,3%,9%,3%,2%,12%
CC(=O)N1CCN(c2ccc(NC(=O)/C=C/c3ccccc3)cc2)CC1,·,·,?,15%,2%[46.1 µM],2%,5%,9%
O=C(Cc1csc(NC(=O)c2ccc(F)cc2)n1)NO,·,·,-13%,-11%,-28%[46.1 µM],1%,·,-12%
COC(=O)c1cc2c(ccn2-c2ccc(F)cc2)n1CC(=O)N1CCN(C(=O)c2ccco2)CC1,-16%,?,?,-12%,-5%,4%,-36%,-29%
O=C(CC(c1ccccc1)c1ccco1)Nc1nccs1 (stereo not given),-20%,?,-7%,15%,-23%,16%,-21%,-10%
COc1ccc(CC(=O)N/N=C/C=C/c2ccc3c(c2)OCO3)cc1OC,·,·,·,1%,·,-1%,5%,5%
CC(C)C(=O)Nc1cccc(NC(=S)NC(=O)c2ccc(Cl)cc2)c1,-1.0%,16%,-29%,8%,?,9%,16%,?
CCN(CC)CCn1c(N)c(S(=O)(=O)c2ccccc2)c2nc3ccccc3nc21,·,·,·,-4%,·,-1%,6%,8%
O=c1[nH]nc(Cc2ccc3ccccc3n2)c2ccccc12,1.2%,3%,27%,8%,1%,-4%,16%,3%
CCC1(C)Cc2c(sc3nnn(Cc4ccccc4Cl)c(=O)c23)CO1 (stereo not given),3.1%,-1%,?,-13%,?,-21%,5%,0%
OC(CNCCc1ccc(Cl)cc1)COc1ccc2ccccc2c1 (stereo not given),·,·,-1%,-14%,?,-22%,3%,-11%
CCNC(=O)C(=O)Nc1ccc2c(c1)N(S(=O)(=O)c1cccs1)CCC2,·,·,?,-13%,?,3%,·,-16%
CCCc1ccc2oc(C(=O)N3CCNC(=O)C3CC(=O)OC)c(C)c2c1 (stereo not given),·,·,-3%,0%,22%,-7%,0%,8%

# Rewritten field by field: four of the compounds above.
> COCCCn1c(=S)[nH]c2ncccc2c1=O
  Cruzain inh Det: 6.7%
  Cruzain inh noDet: -6%
  LASV entry inh: 7%
  RE007 growth inh: 6%
  MARV entry inh: -7%
  SARS PLP yeast: 1%
  NS1 function inh: -5%
  StopGo reporter: 9%
> C=CCn1c(O)c(C(CC)=NC2CC2)c(=O)[nH]c1=O
  Cruzain inh Det: 1.6%
  Cruzain inh noDet: 3%
  LASV entry inh: 0%
  RE007 growth inh: -4%
  MARV entry inh: -3%
  SARS PLP yeast: -3%
  NS1 function inh: 21%
  StopGo reporter: 11%
> CCOC(=O)C1=C(C)NC(=O)NC1c1ccc(OCC(=O)N2CCCCC2)cc1 (stereo not given)
  Cruzain inh Det: -0.8%
  Cruzain inh noDet: 4%
  LASV entry inh: 16%
  RE007 growth inh: 23%
  MARV entry inh: 0%
  SARS PLP yeast: 4%
  NS1 function inh: 3%
  StopGo reporter: -2%
> O=C(C1CCC(N2C(=O)C3CC=CCC3C2=O)CC1)N1CCCCC1 (stereo not given)
  Cruzain inh Det: 5.5%
  Cruzain inh noDet: -2%
  LASV entry inh: -20%
  RE007 growth inh: 3%
  MARV entry inh: 6%
  SARS PLP yeast: 0%
  NS1 function inh: -1%
  StopGo reporter: -2%

# Bioassay records: PubChem, National Center for Advancing Translational Sciences (NCATS)
